# PMP22 txn: modulates PMP22 transcription in S16 Schwann cells; S16 Pmp22-F2sN Schwann cells (luciferase reporters placed in the Pmp22 gene), FLuc/NLuc coincidence luminescence, 24 h; Potency, µM (doses to about 57.5 µM), for inactives: top-dose activity change, negative = inhibition, most hits filed as inhibitors; hit rate 2% among 43,000; active = clear falling dose curves in both reporters; inconclusive = both reporters move, but less clearly or upward; inactive = either reporter flat; the % is the NLuc reporter signal; note: % is set by controls: 0 for no effect and ±100 for the full control effect; some results filed as inactive show a strong effect at the top dose
#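 S16 Schwann cells carrying FLuc/NLuc coincidence reporter in the Pmp22 3' UTR treated with compound 24 h at 37C; FLuc then NLuc luminescence read sequentially by dual-luciferase reagents.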
# HTT promoter inh: inhibits huntingtin promoter activity | hit rate 0.93% among 48,000 | HEK293 HTT promoter firefly luciferase reporter (activity 0% = vehicle and -100% = no light), 24 h | Potency, µM (titrated, usually from 57.5 µM), for inactives: top-dose activity change, negative = inhibition, actives largely listed as inhibitors | AID 1508623; active = well fitted inhibition curve with a large enough effect; inconclusive = small, poorly fitted or top-dose-only effect; inactive = no such curve, though single readings can be large or run the other way; note: nearly all actives have a fitted effect of over 50% in size
#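 HEK293 cells carrying firefly luciferase reporters were seeded at 2,500 per well in Opti-MEM and cultured for 24 h. They were then treated with compounds at up to 57.5 uM final for 24 h at 37 degrees C before Dual-Glo luminescence readout.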
# The depositor's hits bear a star; ? = inconclusive; / = no result given; [ ] = remark or other dose. Potency is the fitted concentration of half-maximal effect. Not a hit list; overall some 2.7% were active at least once.
cpd | Molecule | HTT promoter inh | PMP22 txn
1 | O=C(Cn1c(=O)n(-c2ccc(F)cc2)c(=O)c2sc3ccccc3c21)NC1CCCC1 | -23% | -6%
2 | COc1cccc(N2CCN(c3ncc4c(n3)CCN(Cc3ccc(Br)cc3)C4)CC2)c1 | ? | ?
3 | Cc1cccn2c(=O)c(/C=C(\C#N)c3nc4ccccc4n3C)c(Oc3ccc(Br)cc3)nc12 | -3% | 8%
4 | CCOC(=O)C1CCCN(c2c(C(=O)c3ccccc3)cnc3ccc(F)cc23)C1 (stereo unspecified) | -10% | -14%
5 | O=c1[nH]c2ccccc2c(=O)n1CCCl | 10% | /
6 | Cc1cc(C)cc(N(CC(=O)Nc2cccc(C)c2C)S(=O)(=O)c2c(C)[nH]c(=O)[nH]c2=O)c1 | -16%[11.5 µM] | 67%
7 | CCN(c1ccccc1)S(=O)(=O)c1cc(-c2onc(C)c2C)ccc1OC | -26% | -25%
8 | CCOC(=O)C1=C(C)NC(C)=C(C(=O)OC)C1c1cccc(Cl)c1Cl (stereo unspecified) | -10% | /
9 | Cc1ccc(NC(=O)C2CCC(CNS(=O)(=O)c3ccc4c(c3)CCCC(=O)N4)CC2)c(C)c1 (stereo unspecified) | ? | ?
10 | Cc1nc2c(-c3ccccc3)c(C)nn2c(C)c1CCC(=O)NCc1ccc(F)cc1 | -12% | 1%
11 | Cc1ccc(S(=O)(=O)N(CC(=O)Nc2ccc3c(c2)OCO3)c2cc(Cl)cc(Cl)c2)cc1 | ? | -4%
12 | COc1ccc(NC(=O)c2nnn(CC(=O)Nc3cccc(C)c3C)c2N)c(OC)c1 | ? | ?
13 | O=C(NCc1cccc(Cl)c1)c1cccn1-c1nnc(N2CCCC2)s1 | -15% | -2%
14 | Cc1c(Cl)cccc1Nc1nn2c(=O)c3ccccc3nc2s1 | 12% | 1%
15 | CCN(CC)CCCNC(=O)c1nn(C)c2c1CS(=O)(=O)c1ccccc1-2 | -13% | ?
16 | O=C(Cn1c(=O)n(Cc2ccc(Cl)cc2)c(=O)c2cccnc21)Nc1ccccc1C(F)(F)F | -5% | -43%
17 | Cc1ccc(S(=O)(=O)NCCS(=O)(=O)N2CCN(c3ccccc3)CC2)cc1 | -35% | -18%
18 | COc1cccc(CN(C(=O)c2cccc(C)c2)C2CCS(=O)(=O)C2)c1 (stereo unspecified) | -7% | 9%
19 | O=C(CSc1nc(-c2ccccc2)nc2c1Cc1ccccc1O2)N1CCCCC1 | -3% | -17%
20 | Cc1cc(C)cc(NC(=O)c2cccc3c2C(=O)N(C2CCCCC2)C3)c1 | 9% | 1%
21 | COc1ccc(C)cc1NS(=O)(=O)c1cc(Br)cc2c1N(C(C)=O)C(C)C2 (stereo unspecified) | ? | ?
22 | Cc1cccc(Cn2c(SCc3ccc(C(=O)NCc4cccs4)cc3)nc3ccncc32)c1 | -32% | ?
23 | COc1ccc(CNC(=O)c2sc3nc4n(c(=O)c3c2C)CCCC4)cc1 | 37%[activator] | -26%
24 | COc1ccc(CCNC(=O)CCc2c(C)nc3cc(-c4ccccc4)nn3c2C)cc1OC | ? | 6%
25 | Cc1ccc(CNc2cc(C)nc3nc(-c4ccc(C)cc4)nn23)cc1 | -4% | -21%
26 | CCN(CC)c1nn2c(=O)c(C(=O)NCc3ccc(N(C)C)cc3)cnc2s1 | 6% | -7%
27 | O=C1CC(c2nnc(Cc3ccc(Cl)cc3)o2)CN1c1ccccc1 (stereo unspecified) | -14% | ?
28 | Cc1ccc(C(=O)N2CCN(CCc3ccncc3)CC2)cc1 | -16% | 0%
29 | COc1ccccc1CNC(=O)CN(c1ccc(C)cc1)S(=O)(=O)c1c(C)noc1C | -17% | -10%
30 | Cc1ccnc(NC(=O)c2c(C)oc3ncn(CC(C)C)c(=O)c23)c1 | 81%[activator] | 11%

# Quoted from the results shown (two entries):
cpd | Molecule | HTT promoter inh | PMP22 txn
1 | O=C(Cn1c(=O)n(-c2ccc(F)cc2)c(=O)c2sc3ccccc3c21)NC1CCCC1 | -23% | -6%
2 | COc1cccc(N2CCN(c3ncc4c(n3)CCN(Cc3ccc(Br)cc3)C4)CC2)c1 | ? | ?

# (further entries)
cpd | Molecule | HTT promoter inh | PMP22 txn
31 | CCC(C)n1c(SCc2ccc(F)cc2Cl)nc2ccsc2c1=O (stereo unspecified) | ? | -7%
32 | Cc1ccc(-c2nnc(C3CCN(S(=O)(=O)c4ccc(C)c(C)c4)CC3)o2)cc1 | -12% | -9%
33 | CC1CCN(S(=O)(=O)c2ccc3c(c2)CCN3C(=O)Nc2cccc(Br)c2)CC1 | -12% | ?
34 | CCCN(C(=O)Cc1c(C(=O)O)[nH]c2ccc(Cl)cc12)c1ccc(OCC)cc1 | -13% | ?
35 | COc1ccc(-c2cn3nc(N4CCC(C(=O)Nc5cc(Cl)ccc5C)CC4)sc3n2)cc1 | 4% | ?
36 | CCOC(=O)c1c(S(=O)(=O)NCC(=O)N2CCN(c3ccccc3)CC2)c(C)n(C)c1C | 4% | 4%
37 | COc1ccccc1-c1c(C)nn2c(N3CCN(c4ccc(F)cc4)CC3)cc(C)nc12 | -9% | ?
38 | CCCCCc1ccc(-c2ccc(Br)cc2)nc1 | 76%[activator] | -4%
39 | COC(=O)c1nnn(-c2cccc(C)c2)c1C(=O)OC | 5% | -15%
40 | CCOC(=O)c1ccccc1NC(=O)CSc1c(C)cnc2c1c(=O)n(C)c(=O)n2C | -4% | -9%
41 | CCSc1ncc(Cl)c(C(=O)Nc2c(C(=O)Nc3cccc(C)c3)oc3ccccc23)n1 | -5% | -11%
42 | CCOC(=O)c1cccc(NC(=O)Nc2c(C)n(C)n(-c3ccccc3)c2=O)c1 | -16% | -3%
43 | CCCn1ccc2c(OCC(=O)NCc3ccc(F)cc3)cccc2c1=O | -11% | ?
44 | CCCCOc1ccc(C(=O)Nc2ccc3oc(-c4cccnc4)nc3c2)cc1 | 2% | -8%
45 | Oc1ccccc1Nc1nc(-c2ccccc2)c2cc(Cl)ccc2n1 | -11% | ?
46 | CCOc1ccc(-n2c(=O)c3c(C)c(C(=O)N(C)C)sc3n(Cc3cc(C)ccc3C)c2=O)cc1 | -8% | 5%
47 | COc1ccc(OC)c(NC(=O)CSc2c3c(nc4ccccc24)CCCC3)c1 | ? | 9.5µM*
48 | CCOCN(C(=O)Cn1c(COC)nc2ccccc21)c1c(C)cccc1CC | 17% | -19%
49 | Cc1cccc(N2CCn3c2nc2c3c(=O)n(C/C=C/c3ccccc3)c(=O)n2C)c1 | -6% | -5%
50 | Cc1ccc(S(=O)(=O)c2nnn3c2nc(N2CCN(c4ccccc4F)CC2)c2ccccc23)cc1C | 1% | -6%
51 | C=CCc1c(C)nc2nc(SCC(=O)Nc3cccc(Cl)c3)nn2c1C | ? | ?
52 | C=Cc1ccc(Cn2c(C(=O)O)c(CNCc3ccccc3)c3ccc(C)cc32)cc1 | ? | ?
53 | O=C(O)c1[nH]n(-c2ccc(S(=O)(=O)O)cc2)c(=O)c1N=Nc1ccc(S(=O)(=O)O)cc1 | 2% | /
54 | Cc1nn(-c2ccccc2)c2c1N(CCCC(=O)NCc1ccc(OC(C)C)cc1)C(=O)CS2 | 14µM* | ?
55 | COc1cc(OC)cc(C(=O)NCC(c2cccs2)S(=O)(=O)c2ccc(F)c(C)c2)c1 (stereo unspecified) | 1% | -38%
56 | CSc1ccc(CNC(=O)CCn2ccc3cc(S(=O)(=O)N4CCC(C)CC4)ccc32)cc1 | ? | ?
57 | CSc1ncc(Cl)c(C(=O)N(C)c2ccccc2)n1 | -24% | -7%
58 | COc1cc(NC(=O)c2cc3c(s2)-c2ccccc2OC3)cc(OC)c1OC | ? | ?
59 | Cn1c(=O)c(=O)n(C)c2cc(S(=O)(=O)CCC(=O)Nc3ccc(F)cc3)ccc21 | -20% | 0%
60 | CC1=C(C(=O)Nc2ccc(Cl)cc2)C(C(C)C)n2nc(SCc3cccc(C)c3)nc2N1 (stereo unspecified) | 2% | 18%

# In another format: 16 of the compounds above
# Every second line gives: HTT promoter inh | PMP22 txn
45) Oc1ccccc1Nc1nc(-c2ccccc2)c2cc(Cl)ccc2n1
 : -11% | ?
46) CCOc1ccc(-n2c(=O)c3c(C)c(C(=O)N(C)C)sc3n(Cc3cc(C)ccc3C)c2=O)cc1
 : -8% | 5%
47) COc1ccc(OC)c(NC(=O)CSc2c3c(nc4ccccc24)CCCC3)c1
 : ? | 9.5µM*
48) CCOCN(C(=O)Cn1c(COC)nc2ccccc21)c1c(C)cccc1CC
 : 17% | -19%
49) Cc1cccc(N2CCn3c2nc2c3c(=O)n(C/C=C/c3ccccc3)c(=O)n2C)c1
 : -6% | -5%
50) Cc1ccc(S(=O)(=O)c2nnn3c2nc(N2CCN(c4ccccc4F)CC2)c2ccccc23)cc1C
 : 1% | -6%
51) C=CCc1c(C)nc2nc(SCC(=O)Nc3cccc(Cl)c3)nn2c1C
 : ? | ?
52) C=Cc1ccc(Cn2c(C(=O)O)c(CNCc3ccccc3)c3ccc(C)cc32)cc1
 : ? | ?
53) O=C(O)c1[nH]n(-c2ccc(S(=O)(=O)O)cc2)c(=O)c1N=Nc1ccc(S(=O)(=O)O)cc1
 : 2% | /
54) Cc1nn(-c2ccccc2)c2c1N(CCCC(=O)NCc1ccc(OC(C)C)cc1)C(=O)CS2
 : 14µM* | ?
55) COc1cc(OC)cc(C(=O)NCC(c2cccs2)S(=O)(=O)c2ccc(F)c(C)c2)c1 (stereo unspecified)
 : 1% | -38%
56) CSc1ccc(CNC(=O)CCn2ccc3cc(S(=O)(=O)N4CCC(C)CC4)ccc32)cc1
 : ? | ?
57) CSc1ncc(Cl)c(C(=O)N(C)c2ccccc2)n1
 : -24% | -7%
58) COc1cc(NC(=O)c2cc3c(s2)-c2ccccc2OC3)cc(OC)c1OC
 : ? | ?
59) Cn1c(=O)c(=O)n(C)c2cc(S(=O)(=O)CCC(=O)Nc3ccc(F)cc3)ccc21
 : -20% | 0%
60) CC1=C(C(=O)Nc2ccc(Cl)cc2)C(C(C)C)n2nc(SCc3cccc(C)c3)nc2N1 (stereo unspecified)
 : 2% | 18%

# Following part
cpd | Molecule | HTT promoter inh | PMP22 txn
61 | CCOC(=O)N1CCN(S(=O)(=O)N2CCCC(C(=O)NCc3cc(OC)ccc3OC)C2)CC1 (stereo unspecified) | -23% | -13%
62 | CC1=Nc2cc(C(=O)NC3CCCCC3)ccc2Sc2ccc(Cl)cc21 | ? | 6µM*
63 | CNc1c(NC(=O)c2cc(OC)cc(OC)c2)c(=O)oc2ccccc12 | -8% | 53%
64 | Cc1ccn2c(Nc3ccc4c(c3)OCO4)c(-c3ccc(N(C)C)cc3)nc2c1 | 30%[activator] | ?
65 | Cc1cccc(Cn2c(SCc3ccc(C(=O)NCc4ccccc4F)cc3)nc3cccnc32)c1 | ? | ?
66 | Cc1ccc2scc(N3CCc4ccccc4C3)c(=O)c2c1 | 26% | -24%
67 | O=C(Nc1nc2n(n1)C(c1ccc(F)cc1)C=C(c1ccc(Cl)cc1)N2)c1ccco1 (stereo unspecified) | -30% | -24%
68 | O=C1CN(C(=O)Cc2ccc(F)cc2)C(c2ccccc2)c2cc(Br)ccc2N1 (stereo unspecified) | ? | ?
69 | Cc1ccc(-n2nc(C(=O)Nc3ccc(C)c(F)c3)c(=O)n(C)c2=O)cc1 | -3% | -29%
70 | COC(=O)c1ccc(NC(=O)CSc2ccc(-c3cccs3)nn2)cc1 | 7% | 15%
71 | COC(=O)c1cc(S(=O)(=O)NCC2CCN(Cc3ccc(F)cc3)CC2)cn1C | -20% | -8%
72 | COc1cc(OC)cc(C(=O)Nc2cc(-c3nc4ccccc4[nH]3)ccc2C)c1 | -24% | -44%
73 | CC(=O)Nc1nonc1-c1nnc(SCC(=O)Nc2ccc(C)c(Cl)c2)n1C | -18% | 10%
74 | COc1ccccc1-c1nc2c(c(SCc3cc(C)ccc3C)n1)Cc1c(CO)cnc(C)c1O2 | ? | ?
75 | COc1ccc(C)cc1NC(=O)Cn1nc(N2CCN(c3ccccc3OC)CC2)ccc1=O | -24% | -8%
76 | CCc1cccc(C)c1NC(=O)Cn1ccn(-c2ccc(F)cc2)c(=O)c1=O | -12% | 5%
77 | COc1cc(/C=C/c2nc(C#N)c(NC3CCCCC3)o2)cc(OC)c1OC | -6% | -22%
78 | CC(=O)N1c2ccc(S(=O)(=O)NCC3CCC(C(=O)NCCC(C)C)CC3)cc2CC1C (stereo unspecified) | -7% | ?
79 | Cc1cc(C)c(Cn2c3ccccc3c3cnn(CC(=O)N4CCCCC4)c(=O)c32)c(C)c1 | ? | -24%
80 | O=C(Cc1ccc(F)cc1)NCCc1csc(-c2ccc(C(F)(F)F)cc2)n1 | ? | -91%
81 | CCOc1ccccc1NC(=O)c1c(NC(=O)COc2ccc(Cl)cc2)sc2c1CCCCC2 | -7% | -2%
